Screening results deposited in PubChem by Southern Research Institute.
Mtb growth = Mycobacterium tuberculosis H37Rv growth inhibition, cell based, confirmatory dose response (AID 1949); most inactive calls were filed without a number and no value below 0 was filed; inhibition, % at 10 µg/mL; hits with a dose series show IC50 in µg/mL; hit rate 1.6% among 100,000;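 active means confirmed in a dose series; inconclusive means about 50% or more but not retested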;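 further: bacteria grown 7 days with compound before Alamar blue readout; 0% = untreated bacteria and 100% = reference antibiotic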
Active calls of the source: *; i = inactive; ? = inconclusive. This is a subset; count on the stated rates, not on these rows.

SMILES	Mtb growth
Cc1cc(C)c(S(=O)(=O)N2CCC(C(=O)NCc3ccncc3)CC2)c(C)c1	i
CCOC(=O)c1cc2ccc(OC(=O)c3ccccc3)cc2oc1=O	i
Cc1cccc(NC(=O)CC(NCc2cccnc2)C(=O)O)c1C (stereo not drawn)	i
O=C(NC1CCCCCC1)C1CCCC1	i
O=C(CC1CCCCC1)Nc1ccccc1F	2%
COc1ccccc1OCC(=O)NC1CCCCC1NC(=O)COc1ccccc1OC (stereo not drawn)	6%
COc1ccc(OCCCC(=O)Nc2nc3ccc(C)cc3s2)cc1	i
COc1cc2c(cc1NC(=O)CSc1nc3cc(Cl)ccc3s1)oc1ccccc12	i
COc1ccc(NC(=O)Nc2c(F)cc(F)cc2Br)cc1	i
CSc1nc2ccc(S(=O)(=O)N3CCOCC3)cc2s1	i
CCOC(=O)N1CCN(CC(O)COc2ccccc2C(C)=O)CC1 (stereo not drawn)	i
CCOc1cc(S(=O)(=O)NCCN2CCOCC2)c(C)cc1C	i
Cc1ccc(S(N)(=O)=O)cc1NC(=O)c1cccnc1	i
CS(=O)(=O)N(Cc1ccc(Cl)cc1)c1ccc(C(=O)NCc2ccccn2)cc1	i
CCc1c(C)sc(NC(=O)C2CCCC2)c1C(N)=O	i
Cc1cc(C)cc(NC(=S)NCc2ccco2)c1	i
O=C(O)CSc1cc(NS(=O)(=O)c2ccc(Cl)cc2)c2ccccc2c1O	0%
COc1ccccc1NC(=O)c1cn(-c2ccccc2)nc1-c1ccc(OC)c([N+](=O)[O-])c1	1%
Cc1cc(OCc2ccc(F)cc2F)c2c(C)c(C)c(=O)oc2c1	i
Cc1cccc(NC(=O)CCS(=O)(=O)c2ccccc2)c1	i
O=C(CNC(=O)c1ccccc1)Nc1ccccc1	i
CCOC(=O)c1cc(C(=O)OCC)c(=O)[nH]c1C	i
S=C(NC12CC3CC(CC(C3)C1)C2)N1CCCC1	2%
COc1cccc(C(=O)Nc2ccc(Oc3ccccc3Cl)cc2)c1	10%
Cc1ccnc(NCc2cc(C)ccc2O)c1	i
COC(=O)CC1C(=O)NCCN1C(=S)NC(=O)CCc1ccccc1 (stereo not drawn)	i
COc1ccccc1NC(=O)C1CC(=O)Nc2ncnn21 (stereo not drawn)	i
Cc1ccc(SCCC(=O)Nc2cccc(C)c2)cc1	0%
FC(F)(F)c1cccc(NC(=S)NCCc2ccccn2)c1	i
O=C(Nc1ccc(CN2CCOCC2)cc1)c1ccc(-c2ccccc2)cc1	i
COCCCNc1ncnc2c1cnn2-c1ccc(C)cc1C	0%
COc1ccc(C(=O)N2CCN(C3CCCCCC3)CC2)cc1	i
CCCCc1nc(SC(C)C(=O)Nc2ccc(Cl)cc2)n[nH]1 (stereo not drawn)	i
N#Cc1c2c(c(=S)n(-c3ccccc3)c1N)CCCC2	i
COc1cccc(C(=O)Nc2nc(-c3ccc(F)cc3F)cs2)c1	i
CCOc1ccccc1/C=N/N1CCN(Cc2cccc3ccccc23)CC1	i
CNC(=O)c1cc2cc(Cl)cc(OC)c2oc1=O	0%
COc1ccc(C(=O)Nc2cc(C)n(Cc3ccc(F)cc3)n2)cc1	1%
CC(C)Cn1c(SCC(=O)NCc2ccccc2)nnc1-c1ccccc1	i
N#Cc1c(-c2ccccc2)nc(SCC(=O)Nc2ccc(S(N)(=O)=O)cc2)[nH]c1=O	i

Exported with each value named: part of the list above.
> COc1ccc(C(=O)Nc2cc(C)n(Cc3ccc(F)cc3)n2)cc1
  Mtb growth: 1%
> Cc1ccnc(NCc2cc(C)ccc2O)c1
  Mtb growth: i
> Cc1cc(C)c(S(=O)(=O)N2CCC(C(=O)NCc3ccncc3)CC2)c(C)c1
  Mtb growth: i
> COc1cc2c(cc1NC(=O)CSc1nc3cc(Cl)ccc3s1)oc1ccccc12
  Mtb growth: i

The list goes on:
SMILES	Mtb growth
COC(=O)c1ccc(NC(=O)C(C)Sc2ccc(C)cc2)cc1 (stereo not drawn)	i
COC(=O)c1c(NC(=S)NCCn2cc(Br)cn2)sc2c1CCC(C)C2 (stereo not drawn)	6%
CC(=O)C1=C(C)NC(SCC(=O)Nc2nc3ccccc3s2)=C(C#N)C1c1ccc(Cl)cc1 (stereo not drawn)	4.1µg/mL*
O=C(Nc1cnn(Cc2ccc(Cl)cc2)c1)c1ccc2c(c1)OCO2	i
COc1cccc(C(=O)Nc2ccc(S(=O)(=O)Nc3cccc(C(F)(F)F)c3)cc2)c1	1%
Cc1ccccc1C(=O)Nc1ccc(S(=O)(=O)NCc2ccccc2)cc1	i
CCc1ccccc1NC(=O)c1ccc(NC(=O)CCC(=O)O)cc1	i
CC1(C(=O)Nc2ccc3c(c2)OCCO3)CC1(Cl)Cl (stereo not drawn)	i
COc1ccc(NC(=O)CN(C)S(=O)(=O)c2ccc(Cl)cc2)c(OC)c1	0%
O=C(CN(Cc1ccccc1F)S(=O)(=O)c1ccc(Cl)cc1)Nc1ccc2c(c1)OCO2	0%
COc1ccccc1N1CCN(C(=O)CN2C(=O)c3cccc4cccc(c34)C2=O)CC1	7%
CC(=O)c1c(C)nc2n(Cc3ccccc3)c3ccccc3n12	i
Cc1cccc(OCc2nnc(SCC(=O)Nc3ccc(Br)cc3F)n2C)c1	i
CC1=C(C(=O)c2ccccc2)C(NC(=O)c2ccncc2)(C(F)(F)F)C(=O)N1Cc1ccccc1 (stereo not drawn)	i
O=C(Nc1ccccc1N1CCCCC1)c1ccc2c(c1)OCO2	3%
COc1ccccc1Nc1c([N+](=O)[O-])ccc2nonc12	7%
COC(=O)c1sc(NC(=O)C(c2ccccc2)c2ccccc2)c(C(=O)OC)c1C	0%
C=CCNc1nc(-c2ccc(O)c(OC)c2)cs1	i
COc1ccc(N(CC(=O)Nc2ccc(C(C)C)cc2)S(C)(=O)=O)cc1	1%
O=C(Oc1cccc2c(OC(=O)N3CCOCC3)cccc12)N1CCOCC1	i
COc1ccccc1N1CCN(C2CC(=O)N(c3ccc(NC(C)=O)cc3)C2=O)CC1 (stereo not drawn)	i
Cc1cc(C(=O)Nc2ccc(OCc3ccccc3)cc2)c(C)o1	i
COc1ccc(N(CC(=O)N2CCCC2)S(=O)(=O)c2ccccc2)cc1	i
CCOC(=O)c1ccc(NC(=S)Nc2cc(C)cc(C)n2)cc1	i
COc1cc2c(cc1OC)C(C)N(CCC(N)=O)CC2 (stereo not drawn)	i
C=C(C)c1ccccc1NC(=O)CCN1C(=O)c2ccccc2S1(=O)=O	i
N#CCCn1cc(C(=O)n2nnc3ccccc32)c(-c2ccccc2)n1	i
O=C(CN1CCCCC1)Nc1ccc(Cl)cc1	i
COc1ccc(NC(=S)NCCCN2CCCC2)cc1	i
Cc1ccc(SCC(=O)Nc2nnc(CC(C)C)s2)cc1	2%
Cc1cc(Br)ccc1NC(=O)c1cccc(Cl)c1Cl	i
COc1cccc2cc(C(=O)Nc3ccc4c(c3)OCO4)c(=O)oc12	i
COc1cccc(N2CCN(Cc3nc(N)nc(Nc4ccc(C)c(C)c4)n3)CC2)c1	2.8µg/mL*
O=C(c1csc2c1CCCC2)N1CCC2(CC1)OCCO2	i
COc1cccc(C2/C(=C(\O)c3ccc(F)cc3)C(=O)C(=O)N2CCCCCC(=O)O)c1 (stereo not drawn)	2%
Cc1ccc(-c2ccc(/C=C(\NC(=O)c3ccccc3)C(=O)N3CCOCC3)o2)cc1	i
Cc1cc(C)c(CSc2nnc(COc3ccccc3C)n2C)c(C)c1	i
CCc1cccc(C)c1NS(=O)(=O)c1ccc(NC(C)=O)cc1	i
COc1ccc(N2CCN(S(=O)(=O)c3ccc(Cl)c(C(F)(F)F)c3)CC2)cc1	i
O=C(CNC(=O)C1CCCCC1)NNC(=O)COc1ccc(-c2ccccc2)cc1	i
Cc1cccc(Nc2nc(N)nc(CC(=O)CSc3ccc(Cl)cc3)n2)c1	1%
Cc1cc2c(=O)oc(-c3cccc4ccccc34)nc2s1	?
O=S(=O)(NCc1ccco1)c1ccc(Oc2ccccc2)cc1	i
COc1ccc(OC)c(Nc2nc(=O)c3cccnc3s2)c1	3%
CCc1ccc(C(C)NC(=O)c2cc(C)oc2C)cc1 (stereo not drawn)	i
O=C(NCCO)C(=O)Nc1nc(C23CC4CC(CC(C4)C2)C3)cs1	i
COc1c(C)cc(Br)cc1C(=O)Nc1ccccc1N1CCCCC1	22%
Cc1ccc(CC(=O)Nc2cccc([N+](=O)[O-])c2)cc1	i
COC(=O)Cc1ccc(NC(=S)Nc2ccccn2)cc1	i
O=C(NCc1ccc(Cl)cc1)c1ccc(CN2CCOCC2)cc1	i
CCn1c(SCC(=O)Nc2ccccc2F)nnc1-c1ccccc1C	i
COc1cccc(OC)c1OCCCOc1ccc(Cl)cc1	1%
S=C(Nc1cccc(Cl)c1Cl)N1CCC2(CC1)OCCO2	i
CS(=O)(=O)N(CC(=O)Nc1cccc(F)c1)c1ccccc1Cl	i
CCCCc1cc(=O)oc2cc(C)c(CN3CCCC3)c(O)c12	i
N#Cc1nc(-c2ccccc2F)oc1N1CCN(c2ccccc2)CC1	i
CC1CCc2c(sc3ncn(C(C)C(=O)OCc4ccccc4)c(=O)c23)C1 (stereo not drawn)	1.5µg/mL*
O=C(Nc1ccc([N+](=O)[O-])cc1)c1cc(Br)ccc1O	18µg/mL*
O=C(OCc1c(Cl)cccc1Cl)c1ccco1	i
CCN(CC)C(=O)C(=O)Nc1ccc(OC)cc1OC	i

Among those listed so far, these have fluorine.
SMILES	Mtb growth
O=C(CC1CCCCC1)Nc1ccccc1F	2%
COc1ccc(NC(=O)Nc2c(F)cc(F)cc2Br)cc1	i
Cc1cc(OCc2ccc(F)cc2F)c2c(C)c(C)c(=O)oc2c1	i
FC(F)(F)c1cccc(NC(=S)NCCc2ccccn2)c1	i
COc1cccc(C(=O)Nc2nc(-c3ccc(F)cc3F)cs2)c1	i
COc1ccc(C(=O)Nc2cc(C)n(Cc3ccc(F)cc3)n2)cc1	1%
COc1cccc(C(=O)Nc2ccc(S(=O)(=O)Nc3cccc(C(F)(F)F)c3)cc2)c1	1%
O=C(CN(Cc1ccccc1F)S(=O)(=O)c1ccc(Cl)cc1)Nc1ccc2c(c1)OCO2	0%
Cc1cccc(OCc2nnc(SCC(=O)Nc3ccc(Br)cc3F)n2C)c1	i
CC1=C(C(=O)c2ccccc2)C(NC(=O)c2ccncc2)(C(F)(F)F)C(=O)N1Cc1ccccc1 (stereo not drawn)	i
COc1cccc(C2/C(=C(\O)c3ccc(F)cc3)C(=O)C(=O)N2CCCCCC(=O)O)c1 (stereo not drawn)	2%
COc1ccc(N2CCN(S(=O)(=O)c3ccc(Cl)c(C(F)(F)F)c3)CC2)cc1	i
CCn1c(SCC(=O)Nc2ccccc2F)nnc1-c1ccccc1C	i
CS(=O)(=O)N(CC(=O)Nc1cccc(F)c1)c1ccccc1Cl	i
N#Cc1nc(-c2ccccc2F)oc1N1CCN(c2ccccc2)CC1	i

Next part
SMILES	Mtb growth
COC(=O)c1cccc(NC(=O)COc2ccccc2Cl)c1C	i
Cc1cccc(NCc2ccc(Br)cc2)n1	4%
COc1ccc(S(=O)(=O)N2CCC(C(=O)Nc3cccc(OC)c3)CC2)cc1	i
CCOc1ccccc1N(CC(=O)Nc1ccc(S(=O)(=O)N(CC)CC)cc1)S(C)(=O)=O	i
COc1c(C)cc(Br)cc1C(=O)NCc1cccnc1	i
COc1cc(NC(=O)c2c(-c3ccccc3Cl)noc2C)cc(OC)c1	i
COc1cc([N+](=O)[O-])ccc1NC(=S)NC1CCCc2ccccc21 (stereo not drawn)	44%
Cn1c(=O)c2[nH]c(N3CCN(c4ccccc4)CC3)nc2n(C)c1=O	i
CC(=O)N(CCC(Cc1ccccc1)c1ccco1)Cc1ccco1 (stereo not drawn)	i
COc1cc(S(=O)(=O)N2CCCc3ccccc32)c(OC)cc1Cl	3%
CCOc1cccc(C(=O)Nc2cc(C)c(I)cc2C)c1	i
Cc1ccc2nc(-c3ccc(Br)cc3)cc(C(=O)N3CCOCC3)c2c1	?
Cc1ccc(C(=O)NC(=S)Nc2ccc(N3CCN(C(=O)c4ccco4)CC3)cc2)cc1	i
CC(=O)c1ccccc1OCC(O)CN1CCN(Cc2ccc3c(c2)OCO3)CC1 (stereo not drawn)	i
Cc1occc1C(=O)Nc1ccccc1C(N)=O	0%
CCc1ccccc1N(CC(=O)Nc1cccc([N+](=O)[O-])c1C)S(C)(=O)=O	2%
CCc1ccc(OCC(=O)N2CCN(c3ccccc3OC)CC2)cc1	i
O=C1c2cccc3cccc(c23)C(=O)N1CC(=O)N1CCCc2ccccc21	i
O=C(c1ccccc1)c1cc[n+](Cc2cccc3ccccc23)cc1	i
Cc1cccc(C)c1NC(=O)C1CCN(S(C)(=O)=O)CC1	i
COc1ccc2c(c1)Cc1sc(NC(=O)c3ccccc3-c3ccccc3)nc1-2	16%
CCc1ccccc1NC(=O)CCC(=O)OCC(=O)c1ccc(F)cc1	i
O=C(Nc1ccccc1C(=O)NCc1cccnc1)c1cccc(I)c1	i
Cc1ccc(C(=O)O)cc1NC(=S)NC(=O)c1ccc(Br)cc1	3%
O=C1CCCC2=C1C(c1ccccc1)c1c(nc(SCc3ccccc3Cl)[nH]c1=O)N2 (stereo not drawn)	i
Cc1cc(C)n(CC(=O)NC2CCCCC2)n1	4%
O=C(c1cc2cc(Br)ccc2oc1=O)N1CCCc2ccccc21	i
CCOC(=O)c1c(-c2ccc(OCC)cc2)csc1NC(=O)COC	7%
Cc1ccc(C)c(NCCOc2ccccc2)c1	i
COc1ccc(F)cc1S(=O)(=O)N1CCCC1	0%
COc1ccc(C=O)c(C(=O)O)c1OC	i
COc1ccc(C(=O)Nc2nc3ccc(S(=O)(=O)N(C)C)cc3s2)cc1	i
Cc1ccccc1NC(=O)Cn1cnc2c1c(=O)n(C)c(=O)n2C	2%
COc1c(C(=O)NCc2ccco2)cc2ccccc2c1Br	8%
COc1ccc(-c2cc(=O)oc3cc(OC)ccc23)cc1	i
Cc1cc(CNC(=O)Nc2cccc([N+](=O)[O-])c2)nn1C	i
O=c1oc(-c2cccc(Br)c2)nc2ccc(O)cc12	43%
CC(C)CCn1c(=O)c2ccccc2c2ccccc2c1=O	2%
O=C(CCn1nc(-c2ccc(Cl)cc2)c2ccccc2c1=O)Nc1ccc(F)cc1	i
Cc1nn(-c2cc(N3CCN(CCO)CC3)ccc2[N+](=O)[O-])c(=O)c2ccccc12	i
O=S(=O)(Cc1ccccc1)c1nc2ccccc2n1Cc1ccccn1	i
